miR-21 reporter: raises the signal of a miR-21 reporter; Potency, µM (titrated, usually from 38.3 µM), for inactives: top-dose reporter change, positive = more light; HeLa miR-21 FLuc reporter, luciferase, 48 h; 340,000 tested, under 10 active; active = well fitted rising curve with a large enough effect; inconclusive = small, poorly fitted or top-dose-only effect; inactive = no such curve, though single readings can be large or run the other way;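 further: % of control where 0% means no effect; miR-21 action dims this reporter so a rising signal means less miR-21 action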
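Luminescence from a firefly luciferase reporter carrying a miR-21 binding site downstream, stably expressed under a CMV promoter in HeLa cells that make miR-21 endogenously, reports miRNA modulation after 48 h compound exposure up to approximately 40uM final.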
Rango-impB inh: Rango-importin beta binding inhibition. AID 540263. Potency, µM (highest dose often 92.2 µM), for inactives: at the highest dose inhibition of complex formation. Rango CFP/YFP FRET sensor + importin beta, 45 min. 340,000 compounds, 0.031% hits; active = rising FRET ratio curve, often small or poorly fitted; inconclusive = mostly compound fluorescence or quenching in the first reads; inactive = flat curves in all reads;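 further: potency means the concentration at half of the fitted maximal effect; 0% = DMSO wells and 100% = buffer wells lacking importin beta; nearly all actives have a fitted effect of over 15% in size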
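FRET biosensor (snurportin 1 IBB flanked by EYFP and cerulean), 50 nM, with compound 5 min, then 0.125 microM importin beta in PBS, 1 mM DTT, 0.02% Tween-20, 0.1% BSA. CFP/YFP ratio read after 45 min at room temperature; pre-read flags interference.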
GLA inh pH 4.5: alpha-galactosidase A (human) inhibition, pH 4.5. purified enzyme, 4-MU-alpha-Gal fluorescence, pH 4.5. P06280. activity change, negative = inhibition, % at 105 µM. 230,000 tested, under 10 active; inconclusive = small, poorly fitted or top-dose-only inhibition, or a rising curve; inactive = flat fitted curve, though single readings scatter; no compound was filed as active;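 further: 0% = full activity with enzyme and -100% = basal without enzyme; dose as in the result columns while the protocol names 77 µM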
Target sequence (P06280 whole entry, looked up): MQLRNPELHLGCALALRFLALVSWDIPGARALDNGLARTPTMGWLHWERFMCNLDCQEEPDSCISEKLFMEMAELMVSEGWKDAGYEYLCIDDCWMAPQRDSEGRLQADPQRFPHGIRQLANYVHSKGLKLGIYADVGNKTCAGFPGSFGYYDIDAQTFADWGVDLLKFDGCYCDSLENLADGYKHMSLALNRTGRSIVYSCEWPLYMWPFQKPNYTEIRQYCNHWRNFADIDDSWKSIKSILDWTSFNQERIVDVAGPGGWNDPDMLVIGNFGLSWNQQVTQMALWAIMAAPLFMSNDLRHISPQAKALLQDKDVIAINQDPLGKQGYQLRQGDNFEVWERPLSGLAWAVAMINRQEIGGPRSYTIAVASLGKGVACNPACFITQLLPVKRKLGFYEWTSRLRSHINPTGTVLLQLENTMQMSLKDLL
Rango dissoc inh: prevents RanGTP from dissociating the Rango-importin beta complex | 340,000 compounds, 0.071% hits | Potency, µM (doses to about 46.1 µM), without a hit: at the top dose activity change, negative = inhibition | AID 540253 | Biochemical FRET Rango-importin beta, RanGTP-induced dissociation; active means falling FRET ratio curve, often poorly fitted, with flat reads before Ran was added; inconclusive means other falling curves, or compound fluorescence or quenching; inactive means flat or rising ratio curve;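 further: potency means the concentration at half of the fitted maximal effect; % of control where 0% means no effect; nearly all actives have a fitted effect of over 45% in size; -100% = wells without RanGTP and RCC1; the record marks most hits as doubtful in a second field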
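Compounds preincubate 5 min with complex of recombinant Rango and importin beta in PBS with 1 mM DTT. Ran (0.6 uM) loaded with 2 mM GTP plus 0.2 uM RCC1 starts dissociation; FRET is recorded 45 min later.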
The depositor's hits bear a star; ? = inconclusive; . = no result given; & = joins results of further samples.

mol	Rango dissoc inh	GLA inh pH 4.5	miR-21 reporter	Rango-impB inh
CCOc1ccc(S(=O)(=O)N(C)CC(=O)NCc2ccc3c(c2)OCO3)cc1	-4%	.	0%	1.0%
CC(C)(C)N1CCC1CN (stereo not drawn)	12%	6	0%	-2.3%
N#Cc1ccccc1NC(=O)COC(=O)CCc1ccc(S(=O)(=O)N2CCCCC2)cc1	14%	-1	-1%	0.1%
CC1CN(C(C)C)C(C)CC1OC(=O)c1ccccc1 (stereo not drawn)	10%	.	2%	0.1%
CCN(CC)CCCNC(=O)c1[nH]c(C)c(C(=O)NC2CCCCC2)c1C	2%	7	-5%	-3.1%
COc1ccccc1CC(=O)Nc1ccc2c(c1)C(=O)NC2=O	-16%	4	1%	0.5%
O=C(OC1CCOC1=O)C1CCN(S(=O)(=O)c2ccc(Cl)c(C(F)(F)F)c2)CC1 (stereo not drawn)	12%	.	.	3.7%
COc1ccccc1C(=O)NC(=O)COC(=O)CN1C(=O)NC2(CCCCC2C)C1=O (stereo not drawn)	0%	.	.	-4.4%
COCc1cc(C)nc(SCC[N+](C)(C)CC(=O)c2ccccc2)c1C#N	2%	4	3%	6.0%
CC(=O)c1c(C)[nH]c(C(=O)Nc2ccc(C)c(C)c2)c1C	4%	1	-38%	-1.2%
COc1ccc(-n2c(C)cc(/C=C3\C(=O)NN(c4ccccc4)C3=O)c2C)cc1	0%	-2	-39%	0.0%
CCn1cc(Br)c(C(=O)Nc2ccc(Cl)cc2Cl)n1	-8%	-2	-37%	2.9%
CC(=O)OC/C=C(\C)CCC=C(C)C	-2%	.	.	0.2%
COC(=O)c1ccc(Cn2nc(C)c([N+](=O)[O-])c2C)o1	1%	0	-5%	0.0%
CC(c1ccncn1)N(C)C(=O)c1ccc2oc(Cc3ccccc3)nc2c1 (stereo not drawn)	10%	.	-21%	0.8%
O=C(CSc1nnc(-c2cccc(F)c2)o1)N1CCOCC1	1%	.	-2%	0.1%
N#Cc1ccc(CSc2nnc(-c3ccncc3)o2)cc1	-10%	1	9%	2.0%
COc1ccc(CC(=O)Nc2ccc(C(=O)Nc3ccccc3C(=O)O)cc2)cc1OC	-7%	-1	-1%	5.5%
Cn1c(=O)[nH]c(=O)c2c1nc(N1CCCCCC1)n2CCSc1nc2ccccc2o1	-18%	2	-3%	-0.9%
COc1cc(NC(=O)c2ccco2)c(C(=O)OCC(=O)Nc2ncc(Cl)cc2Cl)cc1OC	2%	-7	-2%	-2.0%
O=C(COC(=O)/C=C/c1ccccc1Cl)NCc1ccco1	0%	1	-1%	-1.2%
CCn1c(SCC(=O)NCc2ccccc2)nc2nc3c(cc2c1=O)CCCC3	17%	-3	3%	0.1%
COc1ccc(-c2nnc(Nc3nc4c(OC)cccc4s3)o2)c(OC)c1	-13%	-16	-2%	1.9%
COc1ccc(CN2C(=O)CS/C2=N/N=C/c2cccs2)cc1	-5%	4	-4%	1.2%
CCNC(=S)Nc1cc(OCC)c(NC(=O)c2cccs2)cc1OCC	-2%	4	-5%	?

mol	Rango dissoc inh	GLA inh pH 4.5	miR-21 reporter	Rango-impB inh
O=C(NCCN1CCOCC1)c1sc2ccccc2c1Cl	-9%	2	-44%	0.9%
O=C(c1cccc(Cl)c1)N1CCC2CC1c1cc(-c3ccc(F)cc3)ccc12 (stereo not drawn)	2%	.	.	0.5%
O=C(CSc1nnc(NC(=O)C2CCC2)s1)NC1CC1	15%	-17	-8%	0.7%
CN1/C(=N\O)c2cccc3cccc1c23	?	3	2%	?
ClC(Br)=C(n1cnc2ccccc21)n1cnc2ccccc21	8%	-3	-6%	3.0%
O=C(NCc1ccccc1)c1onc(CSc2ccc(Cl)cc2)c1C(=O)NCc1ccccc1	-12%	-1	5%	-1.7%
COc1ccc(CNC(=O)C2CCCN2S(=O)(=O)c2ccc(C)cc2)cc1 (stereo not drawn)	-3%	-5	-6%	2.5%
Cc1c(NS(=O)(=O)c2ccccc2F)c(=O)n(-c2ccccc2)n1C	14%	.	-1%	4.9%
C/C(=N\N=C(/N)SC1CC(=O)N(c2ccc(Cl)cc2)C1=O)c1cccs1 (stereo not drawn)	-7%	0	4%	2.0%
OCCN1CCN(C(=S)Nc2ccc(Oc3ccccc3)cc2)CC1	-1%	-14	-7%	-1.8%
Cc1ccc(S(=O)(=O)NC(C)(C)CN2CCCCC2)cc1	0%	.	1%	0.4%
COc1ccc(CCNS(=O)(=O)c2ccc(C3CNC(=O)C3)cc2)cc1OC (stereo not drawn)	27%	-2	-9%	-0.5%
CC(=O)c1c(C)[nH]c(-c2ccccc2)c1C	9%	7	-24%	4.1%
Cc1ccc(N2CC(C(=O)NCc3cccnc3)CC2=O)cc1 (stereo not drawn)	12%	-3	-2%	-0.9%
Nc1nnc(CC(=O)N/N=C\c2ccc(-c3cccc(Cl)c3)o2)s1	5%	1	-5%	0.4%
Cc1ccc(SCc2c(C(=O)N/N=C/C3CC=CCC3)nnn2-c2nonc2N)cc1 (stereo not drawn)	6%	-5	13%	6.7%
Cc1nc(NC(=O)COc2ccccc2)sc1C(=O)Nc1ccccc1	1%	7	-25%	-1.0%
COc1ccc(Cn2ccnc2SCC(=O)NC2CCCC2)cc1	1%	.	1%&0%	-3.1%
COc1ccc(NC(=O)c2ccco2)cc1NC(=O)COc1ccccc1	-11%	.	5%&0%	-1.5%
COc1ccc(CNC(=O)COC(=O)/C=C/c2ccco2)cc1	12%	3	0%	-6.0%
CC1CN(C(=O)c2cc3ccccc3oc2=O)CC(C)O1 (stereo not drawn)	-6%	-1	0%	-1.9%
COc1cccc(-c2ncc3ccccc3c2COC(=O)CCC(=O)O)c1	-12%	.	.	0.8%
CN1CCN(Cc2nc(Cc3cccc(F)c3)no2)CC1c1ccccc1 (stereo not drawn)	-3%	-2	-1%	-1.5%
O=C(COC(=O)c1ccccc1Cl)Nc1cccnc1Cl	-3%	.	.	-2.1%
COC(=O)/C(=C/c1cn(C(C)=O)c2ccccc12)[N+](=O)[O-]	-5%	-2	8%	-0.4%

mol	Rango dissoc inh	GLA inh pH 4.5	miR-21 reporter	Rango-impB inh
CCOc1ccc(NC(=O)CN(C)C(=O)CCCc2nc3ccccc3c(=O)[nH]2)cc1OCC	1%	.	.	5.8%
Cc1ccn2c(=O)nc(SCC(=O)N3CCN(c4ccccc4)CC3)nc2c1	0%	.	.	-0.4%
Cc1sc2ncnc(Sc3ccccc3C(=O)Nc3ccc(Br)cc3)c2c1C	0%	-11	-16%	1.9%
NC(=O)c1ccccc1NC(=O)Nc1cccc(Cl)c1	-13%	3	-6%	-0.9%
O=C(COc1ccccc1)Nn1cnc2ccccc21	-8%	-5	-6%	0.1%
N#Cc1c(N)nc(SCc2ccccc2)c(C#N)c1-c1ccco1	-12%	-4	-37%	?
Cc1cc(OCC(=O)NCCc2ccc(S(N)(=O)=O)cc2)c2c(C)cc(=O)oc2c1	-7%	.	0%	8.7%
O=C(NN1CC(C(=O)OCc2ccc(Cl)cc2Cl)CC1=O)c1ccccc1 (stereo not drawn)	?	.	-1%	4.5%
COCCCNC(=O)CCc1nc(-c2ccccc2)no1	18%	0	-6%	-4.0%
COc1ccc(CCNC(=O)c2ccc(OC)c(OC)c2)cc1OC	1%	.	-10%	7.9%
O=C(CSc1nnc(CNC(=O)c2ccccc2)o1)NCc1ccccc1Cl	-1%	.	-4%	-1.0%
Cc1ccc(S(=O)(=O)Oc2cccc(/C=N/n3cnnc3)c2)cc1	-3%	-4	-6%	11%
CC(C)OCCCn1c(-c2ccc(Br)cc2)c[nH]c1=S	-11%	0	12%	1.6%
Cn1c(=O)c2c(nc(CN3CCN(Cc4ccccc4)CC3)n2CCN2CCOCC2)n(C)c1=O	-9%	-5	-3%	?
CSc1nsc(SCC(=O)Nc2ccc(F)cc2F)n1	0%	.	-56%	0.2%
CC1(C)Cc2c(sc3c2c(=O)n(-c2ccc(Cl)cc2)c(=O)n3CC(N)=O)CO1	-7%	1	-1%	-0.1%
CCc1ccccc1NC(=O)CN1CCN(CC(=O)Nc2ccc(-c3ccccc3)cc2)CC1	4%	.	-2%	3.5%
CCc1ccccc1NC(=O)CSc1nnc(CCNC(=O)OC(C)(C)C)o1	-1%	-2	1%	6.5%
Cc1cc(C)c(NC(=O)C(C)Sc2nnc(-c3ccco3)n2-c2ccccc2)c(C)c1 (stereo not drawn)	.	-9	0%	.
O=C(NCCc1ccc(F)cc1)c1coc(=O)c(Br)c1	17%	.	22%	0.2%
Cc1ccc(S(=O)(=O)N(CC(O)CN2CCCCC2)c2cccc([N+](=O)[O-])c2)cc1 (stereo not drawn)	-9%	.	-6%	-3.4%
O=C(O)CCC(=O)Nc1ccc(C(=O)N2CCCCC2)cc1	34%	4	-4%	1.3%
CCC1Oc2ccccc2N(CC(=O)NCCCN2CCCCC2C)C1=O (stereo not drawn)	1%	12	-2%	-1.4%
CCOc1ccc(NC(=O)[C@@H]2CCCN2C(=O)c2cccs2)cc1S(=O)(=O)N1CCOCC1	-21%	.	.	1.7%
O=C(O)CCCC(=O)Nc1nc(-c2ccccc2)cs1	-2%	-1	-1%	-4.7%

mol	Rango dissoc inh	GLA inh pH 4.5	miR-21 reporter	Rango-impB inh
CCCCCCCCCC(=O)N/N=C/c1ccc(C)s1	6%	-8	1%	-2.6%
CC(C)C(NC(=O)c1ccc(F)cc1)C(=O)OCC(=O)N1CC(=O)Nc2ccccc21 (stereo not drawn)	-3%	-2	1%	0.2%
CCOC(=O)C1=C(C)NC2=C(C(=O)CC(C)(C)C2)C1c1cccc(C)n1 (stereo not drawn)	?	29	0%	?
Cc1cccc(NC(=O)C2CCCN(S(=O)(=O)c3ccc4c(c3)oc(=O)n4C)C2)c1 (stereo not drawn)	-12%	-1	-1%&0%	-1.6%
CNC(=O)COC(=O)/C=C/c1ccco1	0%	-5	0%	-3.8%
Cc1cc(NC(=O)CSc2cn(CCNC(=O)c3ccc(F)cc3)c3ccccc23)no1	1%	-19	-1%	1.4%
OC(C#Cc1ccccn1)c1cccs1 (stereo not drawn)	0%	-3	-34%	-1.4%
Fc1ccc(C2CC(c3ccco3)=NN2c2ccccc2)cc1 (stereo not drawn)	-5%	1	-13%	0.9%
O=S(=O)(c1ccc(OCC(O)CNC23CC4CC(CC(C4)C2)C3)c(Cl)c1)N1CCOCC1 (stereo not drawn)	7%	-5	21%	2.5%
O=C(Nc1ccccc1C(=O)NCCc1ccccc1)c1ccco1	14%	5	-7%	-0.5%
CNC(=O)COc1ncnc2sc(C)c(C)c12	18%	1	-6%	-1.5%
Clc1ccc(CNC2CCN(Cc3ccccc3)CC2)cc1	2%	.	2%	0.1%
CC1CCCN(C(=O)c2cc3c(-c4ccc(Cl)cc4)nn(C)c3s2)C1 (stereo not drawn)	13%	4	-2%	4.0%
O=C(Nc1ccnn1C1CCN(C(=O)c2cc(Cl)ccc2F)CC1)C1CCOC1 (stereo not drawn)	-7%	.	0%	2.5%
CC(C)CCN1CCN(Cc2cn[nH]c2C2CCCCC2)CC1CCO (stereo not drawn)	-8%	4	0%	-1.7%

Compound activity deposited in PubChem by National Center for Advancing Translational Sciences (NCATS).

An excerpt (hit frequency here may not be typical).
